MLL AF4-AF9 inh: inhibitors of AF4 peptide binding to AF9, primary screen, biochemical, AlphaScreen, biotin-AF4 peptide, FLAG-AF9, single point; Protein AF-9 (Homo sapiens), P42568; inhibition, % at 10 µM; 0.47% of 350,000 active;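 active means every replicate reaching a set inhibition limit, whatever the replicate mean, cut at about 25% in these data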;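 further: 0% = plate neutral control median and 100% = total signal loss; the record names both 10 and 1 µM as test concentration; the first replicate is given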
Target sequence (P42568 whole entry, looked up): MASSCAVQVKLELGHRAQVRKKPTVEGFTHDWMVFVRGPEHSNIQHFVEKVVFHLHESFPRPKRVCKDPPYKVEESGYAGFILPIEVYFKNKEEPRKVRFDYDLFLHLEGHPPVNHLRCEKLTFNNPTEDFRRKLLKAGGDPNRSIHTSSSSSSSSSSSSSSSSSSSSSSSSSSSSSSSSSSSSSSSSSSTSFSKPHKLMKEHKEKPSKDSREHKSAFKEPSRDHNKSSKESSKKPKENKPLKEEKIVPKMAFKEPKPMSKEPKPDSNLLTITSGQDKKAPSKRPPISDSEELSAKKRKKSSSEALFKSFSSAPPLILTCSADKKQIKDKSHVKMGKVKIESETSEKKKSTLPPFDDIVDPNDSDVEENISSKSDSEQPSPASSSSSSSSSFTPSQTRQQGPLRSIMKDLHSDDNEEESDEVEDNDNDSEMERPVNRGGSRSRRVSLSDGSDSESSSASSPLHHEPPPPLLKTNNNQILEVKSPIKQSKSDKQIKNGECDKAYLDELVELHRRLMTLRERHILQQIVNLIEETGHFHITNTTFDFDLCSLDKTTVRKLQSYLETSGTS
FGF22 binding: binders of human FGF22 protein, primary screen, FGF22 synaptogenesis inhibitor project, biophysical, thermal shift, single point; Fibroblast growth factor 22 (Homo sapiens), Q9HCT0; recombinant FGF22 thermal shift, SYPRO orange fluorescence; percent of sucrose octasulfate shift, DMSO zero; calls only at 9.99 µM; 1.5% of 340,000 active;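 active means melting point raised past a set limit in the mean and every replicate; three in four hits are not shown here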
Target sequence (Q9HCT0 whole entry, looked up): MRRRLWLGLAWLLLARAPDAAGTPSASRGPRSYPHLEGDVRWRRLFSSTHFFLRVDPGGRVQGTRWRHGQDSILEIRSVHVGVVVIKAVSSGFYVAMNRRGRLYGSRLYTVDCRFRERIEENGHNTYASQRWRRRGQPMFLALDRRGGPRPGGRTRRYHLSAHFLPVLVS
The depositor's hits bear a star; i = inactive. Not all compounds are listed; the hit share may differ from the screen's.

SMILES	MLL AF4-AF9 inh	FGF22 binding
C[C@H]1CN([C@@H](C)CO)S(=O)(=O)c2ccc(-c3cccc(C(=O)N(C)C)c3)cc2O[C@@H]1CN(C)C(=O)Cc1ccccn1	2.8	i
C[C@H]1CN([C@@H](C)CO)C(=O)Cc2cc(NS(=O)(=O)c3cccs3)ccc2O[C@H]1CN(C)C(=O)Nc1ccc(C(F)(F)F)cc1	-4.5	i
CO[C@@H]1CN(C)C(=O)c2cc(NC(=O)Nc3ccccc3)ccc2OC[C@H](C)NC[C@H]1C	1.6	i
Cc1ccccc1S(=O)(=O)N[C@@H]1CC[C@H](CCn2cc(-c3ccccc3)nn2)O[C@H]1CO	-1.5	i
CCN1[C@H](C(=O)NCC2CC2)[C@@H](CO)[C@@H]2Cn3c(ccc(-c4ccccc4)c3=O)[C@@H]21	-0.6	i
CC(C)CC#Cc1cnc2c(c1)C(=O)N([C@H](C)CO)C[C@H](C)[C@@H](CN(C)S(=O)(=O)c1ccccc1)O2	-1.6	i
C[C@@H]1CN([C@@H](C)CO)C(=O)c2cccc(NC(=O)c3ccc(-c4nccs4)cc3)c2O[C@H]1CN(C)C(=O)Nc1ccc(C(F)(F)F)cc1	0.4	i
C[C@@H]1CN([C@@H](C)CO)S(=O)(=O)c2ccc(C#CC3CC3)cc2O[C@@H]1CN(C)C(=O)CN(C)C	0.8	i
C[C@H]1CN([C@@H](C)CO)C(=O)c2cc(NC(=O)C3CC3)ccc2O[C@H]1CN(C)Cc1ccccc1	-2.2	i
CCC(=O)N1CC2(C1)CN(Cc1nccs1)[C@H](CO)c1c2c2ccc(OC)cc2n1C	-3.2	i
C[C@@H]1CN([C@@H](C)CO)C(=O)c2cc(-c3ccc(F)cc3)cnc2O[C@H]1CN(C)C(=O)Cc1ccccn1	0.2	i
COc1ccc(NC(=O)N(C)C[C@@H]2Oc3c(cccc3N(C)C)C(=O)N([C@@H](C)CO)C[C@H]2C)cc1	-17	i
COc1ccccc1C(=O)Nc1ccc2c(c1)C(=O)N(C)[C@@H]1CC[C@H](CC(=O)NCCc3ccncc3)O[C@@H]1CO2	-1.2	i
COCC(=O)N(C)C[C@H]1Oc2cc(-c3ccc(OC)cc3)ccc2S(=O)(=O)N([C@H](C)CO)C[C@@H]1C	3.4	i
CO[C@@H](CN(C)C(=O)c1ccccc1F)[C@H](C)CN([C@H](C)CO)S(=O)(=O)c1ccc(C)cc1	-1.7	i
CCC(=O)N1C[C@H](C)[C@@H](OC)CN(C)C(=O)c2ccc(NC(=O)Nc3ccccc3)cc2OC[C@H]1C	1.5	i
C[C@@H]1CCCCO[C@H](CN(C)S(=O)(=O)c2ccccc2)[C@@H](C)CN([C@H](C)CO)C(=O)c2cc(NC(=O)Nc3ccc(C(F)(F)F)cc3)ccc2O1	-0.9	i
O=C(Nc1ccc2c(c1)OCO2)N[C@H]1CC[C@@H](CCNC(=O)C2CCCC2)O[C@@H]1CO	0.9	i
CN1C(=O)c2cc(NS(=O)(=O)c3ccc(F)cc3)ccc2OC[C@H]2O[C@@H](CC(=O)Nc3cccc4ccccc34)CC[C@@H]21	-0.2	i
CO[C@H]1CN(C)C(=O)c2ccc(NC(=O)C3CC3)cc2OC[C@@H](C)N(Cc2nccs2)C[C@H]1C	-2.1	i
CN(C)C(=O)C[C@H]1C[C@@H]2c3cc(NS(C)(=O)=O)ccc3O[C@@H]2[C@@H](CO)O1	-0.5	i
C[C@H](CO)N1C[C@H](C)[C@H](CN(C)S(C)(=O)=O)OCCCC[C@H](C)Oc2ccc(NC(=O)CCC(F)(F)F)cc2C1=O	-0.3	i
CC(C)NC(=O)NCC[C@@H]1CC[C@@H](NC(=O)Nc2ccccc2)[C@@H](CO)O1	4.4	i
CN(C)C(=O)c1cccc(-c2cccc(-c3nc(C(=O)NC4CCCCC4)cc4c3[C@H](CCO)N([S@@](=O)C(C)(C)C)C4)c2)c1	6.8	i
COCC(=O)Nc1ccc2c(c1)[C@@H]1C[C@H](CC(=O)NC3CCCCC3)O[C@H](CO)[C@@H]1O2	-1.4	i

Some of the entries so far, with values under each structure.
Value order: MLL AF4-AF9 inh | FGF22 binding
> O=C(Nc1ccc2c(c1)OCO2)N[C@H]1CC[C@@H](CCNC(=O)C2CCCC2)O[C@@H]1CO
 : 0.9 | i
> CN(C)C(=O)C[C@H]1C[C@@H]2c3cc(NS(C)(=O)=O)ccc3O[C@@H]2[C@@H](CO)O1
 : -0.5 | i

Filtered by structure: the compounds so far with a CF3 group.
SMILES	MLL AF4-AF9 inh	FGF22 binding
C[C@H]1CN([C@@H](C)CO)C(=O)Cc2cc(NS(=O)(=O)c3cccs3)ccc2O[C@H]1CN(C)C(=O)Nc1ccc(C(F)(F)F)cc1	-4.5	i
C[C@@H]1CN([C@@H](C)CO)C(=O)c2cccc(NC(=O)c3ccc(-c4nccs4)cc3)c2O[C@H]1CN(C)C(=O)Nc1ccc(C(F)(F)F)cc1	0.4	i
C[C@@H]1CCCCO[C@H](CN(C)S(=O)(=O)c2ccccc2)[C@@H](C)CN([C@H](C)CO)C(=O)c2cc(NC(=O)Nc3ccc(C(F)(F)F)cc3)ccc2O1	-0.9	i
C[C@H](CO)N1C[C@H](C)[C@H](CN(C)S(C)(=O)=O)OCCCC[C@H](C)Oc2ccc(NC(=O)CCC(F)(F)F)cc2C1=O	-0.3	i

(listing goes on)
SMILES	MLL AF4-AF9 inh	FGF22 binding
COc1ccccc1S(=O)(=O)N[C@H]1CC[C@@H](CCNC(=O)C2CCC2)O[C@H]1CO	-16	i
COc1ccc(CN(C)C[C@@H]2OCCCC[C@@H](C)Oc3ccc(NC(=O)CCCN(C)C)cc3C(=O)N([C@H](C)CO)C[C@@H]2C)cc1	2.2	i
COCc1cn(CC[C@H]2CC[C@@H](NC(=O)Nc3ccc(Cl)cc3)[C@@H](CO)O2)nn1	-1.3	i
CCC(=O)N[C@H]1CC[C@@H](CC(=O)NCc2cc(F)cc(F)c2)O[C@@H]1CO	-1.5	i
CC(C)CC#Cc1ccc2c(c1)O[C@H](CN(C)Cc1ccc(F)cc1)[C@H](C)CN([C@@H](C)CO)S2(=O)=O	2.4	i
C[C@@H]1CN([C@H](C)CO)C(=O)Cc2cc(NS(=O)(=O)c3ccc(F)cc3)ccc2O[C@H]1CN(C)Cc1ccc(C(=O)Nc2ccccc2N)cc1	-3.3	i
O=C(C[C@H]1CC[C@@H]2[C@H](COC[C@H](O)CN2Cc2ccc(F)cc2)O1)NCCc1ccccc1	-0.5	i
COc1ccc(NC(=O)Nc2cccc3c2O[C@H](CN(C)S(=O)(=O)c2ccccc2)[C@H](C)CN([C@@H](C)CO)C3=O)cc1	4.5	i
O=C(C1CCOCC1)N1CC(=O)N2[C@H](CO)[C@H](c3ccc(C#CC4CCCCC4)cc3)[C@@H]2C1	4.7	i
C[C@H](CO)N1C[C@H](C)[C@@H](CN(C)Cc2ccc(-c3ccccc3)cc2)Oc2ccc(NC(=O)CCC(F)(F)F)cc2C1=O	2.9	i
CN1C(=O)c2cc(NC(=O)c3cccs3)ccc2OC[C@H]2O[C@@H](CC(=O)Nc3ccc4c(c3)COC4)CC[C@@H]21	-1.8	i
C[C@@H]1CCCCO[C@@H](CN(C)Cc2ccccc2)[C@H](C)CN([C@H](C)CO)C(=O)c2cc(NS(=O)(=O)c3cccs3)ccc2O1	2.7	i
O=C(C[C@H]1CC[C@H]2[C@@H](COC[C@@H](O)CN2C(=O)c2ccccc2F)O1)N1CCCCC1	0.7	i
C[C@@H]1CN([C@H](C)CO)C(=O)c2cc(C#CC3(O)CCCC3)cnc2O[C@H]1CN(C)C(=O)C1CCC1	-2.1	i
C[C@@H]1CN([C@@H](C)CO)S(=O)(=O)c2ccc(C#CC3CC3)cc2O[C@H]1CN(C)C(=O)CN(C)C	1.4	i
COc1ccc(S(=O)(=O)N(C)C[C@@H]2OCCCC[C@H](C)Oc3ccc(NC(=O)Nc4ccc(F)cc4)cc3C(=O)N([C@@H](C)CO)C[C@H]2C)cc1	-0.4	i
CCC(=O)Nc1ccc2c(c1)C(=O)N(C)C[C@@H](OC)[C@@H](C)CN(C(=O)COC)[C@H](C)CO2	-2.3	i
CC(C)NC(=O)Nc1cccc2c1O[C@@H](CN(C)Cc1ccc(C(=O)Nc3ccccc3N)cc1)[C@@H](C)CN([C@@H](C)CO)C2=O	0.6	i
CCCN1C[C@@H](C)[C@@H](OC)CN(C)C(=O)c2ccc(NC(=O)c3ccccc3)cc2OC[C@@H]1C	-1.5	i
C[C@H]1CCCCO[C@H](CN(C)S(=O)(=O)c2ccc(Cl)cc2)[C@@H](C)CN([C@@H](C)CO)C(=O)c2cc(NC(=O)Nc3ccccc3)ccc2O1	1.9	i
CCC(=O)N(C)C[C@H]1Oc2cc(C#CC3CC3)ccc2S(=O)(=O)N([C@@H](C)CO)C[C@@H]1C	-7.0	i
Cc1noc(C)c1NC(=O)Nc1ccc2c(c1)C(=O)N([C@@H](C)CO)C[C@@H](C)[C@@H](CN(C)C(=O)Nc1ccc(C(F)(F)F)cc1)O2	2.2	i
CCC(=O)Nc1ccc2c(c1)OC[C@H](C)N(C(=O)c1ccc(F)cc1)C[C@@H](C)[C@H](OC)CN(C)C2=O	-1.4	i
C[C@@H]1CN([C@H](C)CO)C(=O)c2cc(C#C[C@@H](C)O)cnc2O[C@H]1CN(C)C(=O)CC1CC1	-0.2	i
CCC(=O)N(C)C[C@H]1Oc2ncc(-c3ccccc3OC)cc2C(=O)N([C@@H](C)CO)C[C@@H]1C	-2.1	i
SMILES	MLL AF4-AF9 inh	FGF22 binding
CC(C)NC(=O)Nc1cccc2c1O[C@H](CN(C)Cc1ccccc1)[C@@H](C)CN([C@H](C)CO)C2=O	1.4	i
CO[C@@H]1CN(C)C(=O)c2cc(NS(C)(=O)=O)ccc2OC[C@@H](C)N(C(=O)C2CCOCC2)C[C@@H]1C	-14	i
COc1ccc(S(=O)(=O)Nc2ccc3c(c2)C(=O)N([C@H](C)CO)C[C@H](C)[C@@H](CN(C)C(=O)NC2CCCCC2)OCCCC[C@H](C)O3)cc1	-2.6	i
Cc1ccccc1-c1ccc2c(c1)O[C@H](CN(C)Cc1ccc(C(=O)O)cc1)[C@@H](C)CN([C@H](C)CO)S2(=O)=O	0.4	i
CO[C@@H]1CN(C)C(=O)c2ccc(NS(=O)(=O)c3ccc(C)cc3)cc2OC[C@@H](C)N(Cc2ccccn2)C[C@H]1C	5.2	i
C[C@H](CO)N1C[C@H](C)[C@H](CN(C)C(=O)Cc2cccnc2)Oc2ncc(C#Cc3ccccc3F)cc2C1=O	-2.0	i
C[C@H]1CN([C@@H](C)CO)C(=O)Cc2cc(NC(=O)CCCCCC(=O)Nc3ccccc3N)ccc2O[C@@H]1CN(C)S(=O)(=O)c1ccc(F)cc1	-1.8	i
CCCNC(=O)[C@H]1[C@H](CO)[C@H]2Cn3c(ccc(-c4ccncc4)c3=O)[C@H]2N1C(=O)c1ccccc1F	-1.4	i
C[C@H](CO)N1C[C@H](C)[C@@H](CN(C)C(=O)c2ccc3c(c2)OCO3)Oc2ncc(C#Cc3ccccc3F)cc2C1=O	4.7	i
C[C@H]1CN([C@@H](C)CO)C(=O)c2cc(C3=CCCCC3)cnc2O[C@@H]1CN(C)Cc1ccccc1C(=O)O	3.6	i
CCCNC(=O)[C@H]1[C@H](CO)[C@H]2Cn3c(cccc3=O)[C@@H]1N2Cc1cc(F)ccc1F	-2.8	i
COC(=O)C[C@H]1CC[C@H]2[C@H](COc3ccc(NS(=O)(=O)c4ccccc4Cl)cc3C(=O)N2C)O1	-2.6	i
CCCC(=O)Nc1ccc2c(c1)OC[C@@H](C)N(S(=O)(=O)c1cn(C)cn1)C[C@H](C)[C@H](OC)CN(C)C2=O	-1.9	i
COc1ccc(S(=O)(=O)Nc2ccc3c(c2)C(=O)N([C@@H](C)CO)C[C@@H](C)[C@H](CN(C)C(=O)Nc2c(C)noc2C)OCCCC[C@@H](C)O3)cc1	-2.0	i
COCC(=O)N1[C@@H](CO)[C@H](c2ccccc2)[C@@H]1CN(C)C(=O)c1ccncc1	-8.9	i
C[C@@H]1CN([C@H](C)CO)S(=O)(=O)c2ccc(-c3cccc(C#N)c3)cc2O[C@@H]1CN(C)Cc1ccccn1	0.3	i
C[C@@H]1CN([C@H](C)CO)C(=O)CCCn2cc(nn2)CO[C@H]1CN(C)Cc1ccc2c(c1)OCO2	-14	i
COc1ccc(NC(=O)N(C)C[C@@H]2Oc3ccc(N(C)C)cc3CC(=O)N([C@H](C)CO)C[C@@H]2C)cc1	1.4	i
COc1ccc(S(=O)(=O)N(C)C[C@@H]2Oc3ccc(NC(=O)C4CCCCC4)cc3C(=O)N([C@@H](C)CO)C[C@@H]2C)cc1	0.7	i
C[C@@H]1CN([C@@H](C)CO)S(=O)(=O)c2ccc(C#Cc3ccccc3F)cc2O[C@@H]1CN(C)C(=O)Cc1ccccc1	-9.5	i
COCC(=O)Nc1ccc2c(c1)[C@@H]1C[C@H](CC(=O)NCc3ccccc3OC)O[C@@H](CO)[C@@H]1O2	1.7	i
C[C@H](NC(=O)C[C@H]1CC[C@@H]2[C@@H](COc3ccc(NC(=O)C4CCOCC4)cc3C(=O)N2C)O1)c1ccccc1	-1.1	i
Cc1cccc(S(=O)(=O)N2C[C@@H]3[C@H](c4ccccc42)[C@@H](CO)N3CC2CCOCC2)c1	-0.6	i
CCCC#Cc1cnc2c(c1)C(=O)N([C@H](C)CO)C[C@H](C)[C@@H](CN(C)S(=O)(=O)c1cccc(OC)c1)O2	0.8	i
C[C@H](CO)N1C[C@H](C)[C@H](CN(C)S(=O)(=O)c2cccs2)Oc2ncc(-c3ccccc3)cc2C1=O	0.0	i
